# UCH37 DUB inh – human UCH37 deubiquitinating enzyme inhibition; Q9Y5K5; purified proteasome/UCH37, Ub-AMC cleavage fluorescence; inhibition, % (no concentration beside the values); hit rate 0.33% among 330,000; AID 588478;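 active = mean of two replicates above 20%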;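 also: 0% = compound-free wells with enzyme and 100% = wells lacking proteasome; stock transfer was 100 nL into about 20 µL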
# Target sequence (Q9Y5K5 whole entry, looked up): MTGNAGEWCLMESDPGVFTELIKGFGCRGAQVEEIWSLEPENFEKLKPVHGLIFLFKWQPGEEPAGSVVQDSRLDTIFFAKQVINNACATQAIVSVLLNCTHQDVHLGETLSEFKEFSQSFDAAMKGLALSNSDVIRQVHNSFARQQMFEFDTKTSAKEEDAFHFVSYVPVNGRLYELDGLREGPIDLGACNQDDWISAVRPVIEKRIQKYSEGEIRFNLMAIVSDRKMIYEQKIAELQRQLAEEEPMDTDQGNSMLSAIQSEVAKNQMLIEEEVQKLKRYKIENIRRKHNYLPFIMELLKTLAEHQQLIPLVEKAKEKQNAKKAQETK
#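 Material: human UCH37 enzyme supplied as purified proteasome complex. Measure: % inhibition of Ub-AMC cleavage fluorescence. Medium: pH 7.4 Tris-HCl (50 mM) with ovalbumin, ATP-MgCl2, DTT. Times: 30 min preincubation with enzyme, 25 min cleavage at room temperature. Detection: AMC fluorescence intensity at 355/460 nm.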
# Ecoli growth – E. coli growth inhibition. OD600 absorbance (concentration not given with the values). hit rate 0.21% among 330,000. Escherichia coli growth, OD600, 23 h; stronger effect = lower value;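 active = OD600 absorbance below the run mean of sample wells minus 3.6 SD, in any replicate, cut at about 0.56 in these data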;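 also: stock transfer was 300 nL into about 60 µL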
# Vif A3G – HIV-1 Vif–A3G interaction blockers – biochemical, TR-FRET, GST-Vif 1-94, biotin-A3G peptide, dose response retest, primary screen (AID 1117319); TR-FRET GST-Vif / biotin-A3G peptide binding; higher % means a stronger effect; test concentration not given here; strong numbers were not always called active; inhibition, %; hits with a dose series show IC50 in µM; hit rate 0.57% among 260,000;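 active = above the screen mean plus three standard deviations and confirmed in dose response; inconclusive = results disagree or hit not tested in dose response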;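 also: Vif residues 1-94 fused to GST binding biotinylated APOBEC3G peptide 110-148; 0% = full assay without inhibitor and 100% = GST in place of GST-Vif; retest series ran down from 100 µM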
# B2AR ag – activates human beta-2 adrenergic receptor causing internalization; P07550; Am2.2-beta2AR cells, FAP receptor internalization, flow cytometry; reference of the scale not given here; response, % (test concentration not listed); hit rate 0.43% among 340,000;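 active = response above a set limit, near 3 SD of response in nonfluorescent compounds, cut at about 42% in these data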;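 also: stock transfer was 100 nL into about 11 µL; a reference agonist was the positive control; negative values mostly stem from fluorescent compounds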
# A1 inh – inhibitors of the anti-apoptotic protein A1, read as caspase activation | MEF A1-2A-BIM cells, Caspase-Glo 3/7 luminescence, 3 h; percent of clofoctol response, vehicle zero | caspase activation, % (concentration not given with the values) | hit rate 0.066% among 330,000 | AID 2462;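 active = over half of replicate activation scores above 10%, or exactly half above 10 with the replicate mean above 10; inconclusive = replicate mean below 10 yet half the replicates above 10; inactive = over half of replicates below 10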;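 also: wells of about 30 µL received 50 nL stock; many hits fall short of the cut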
# HNF4A DNA FP – change in binding of human HNF4 alpha to DNA. P41235. HNF4a-FITC DNA binding, fluorescence polarization, 1 h. activity change, % at 10 µM. hit rate 0.3% among 360,000. AID 1224865; in the data active = activity change above about 30%, passing the limit was not always enough;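 also: controls were the assay level and a saturating level of protein; the project sought stronger binding though the title names inhibitors; some compounds called inactive have numbers as strong as hits; positive values seem to mean higher polarization but the record does not say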
# Target sequence (P41235 whole entry, looked up): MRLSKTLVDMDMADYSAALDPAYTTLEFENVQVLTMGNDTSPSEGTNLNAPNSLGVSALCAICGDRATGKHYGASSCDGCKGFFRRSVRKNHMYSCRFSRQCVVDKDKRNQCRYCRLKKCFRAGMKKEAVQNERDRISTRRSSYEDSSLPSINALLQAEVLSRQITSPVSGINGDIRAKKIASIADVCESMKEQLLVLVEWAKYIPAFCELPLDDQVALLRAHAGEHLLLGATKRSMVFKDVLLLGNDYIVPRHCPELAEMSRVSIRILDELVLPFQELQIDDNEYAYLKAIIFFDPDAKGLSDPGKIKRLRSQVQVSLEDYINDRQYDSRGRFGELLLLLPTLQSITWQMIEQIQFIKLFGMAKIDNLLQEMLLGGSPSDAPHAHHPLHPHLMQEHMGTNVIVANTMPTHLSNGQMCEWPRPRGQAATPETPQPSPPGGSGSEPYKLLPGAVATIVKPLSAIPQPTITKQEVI
# LANA-H2B inh – blocks KSHV LANA binding to histone H2A/H2B. inhibition, % (concentration not given with the values). AID 2629. hit rate 0.6% among 320,000. cell-free LANA-H2A/H2B peptide, fluorescence polarization; in the data active = inhibition mostly above about 10%, no sharp cut-off; inactive = mostly below about 6.7%;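 also: stock transfer was 7.5 nL into about 10 µL; 0% = median of vehicle wells and 100% = median of positive control wells; one replicate is shown; the record names a cut of 25% in any replicate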
# Active calls of the source: *; i = inactive; ? = inconclusive; . = not tested or not shown; & = joins results of further samples.
# Order of results – UCH37 DUB inh	Ecoli growth	Vif A3G	B2AR ag	A1 inh	HNF4A DNA FP	LANA-H2B inh
1) C/C(=N/NC(N)=S)c1ccccc1[N+](=O)[O-]
    .	.	-4.0%	-0.8	0.8	-5.5	-0.8
2) COc1ccc(CCC(=O)N2c3ccccc3CC2C)cc1 (stereo not drawn)
    1.2	0.659	2.9%	-3.6	-1.0	1.6	2.7
3) Cc1cc(C)c2nc(NNC(=O)c3ccc(S(=O)(=O)N4CCc5ccccc5C4)cc3)sc2c1
    2.6	0.757	.	16.3	-0.2	-0.6	-3.5
4) O=C(NCCCn1ccnc1)c1cccc(Cl)c1
    -0.1	0.643	4.1%	-9.6	1.5	-0.3	4.5
5) O=S(=O)(c1ccc2ccccc2c1)N1CCN(S(=O)(=O)c2c(F)cccc2F)CC1
    3.4	0.698	.	-0.7	0.3	-2.2	-1.3
6) O=C1C=C(NNC(=O)c2ccncc2)CC(c2ccccc2)C1 (stereo not drawn)
    8.2	0.668	17.2%	2.0	0.4	8.7	1.7
7) Cc1ccc2[nH]c(C(=O)N/N=C/c3ccc([N+](=O)[O-])cc3)c(C)c2c1
    .	.	-7.4%	-8.8	-0.1	1.1	-0.8
8) CCOCCCNC(=O)c1ccc2c(c1)N(CC)C(=O)c1ccccc1S2=O (stereo not drawn)
    1.1	0.68	-6.0%	-29.2	0.6	1.1	-0.9
9) CCN(C(=O)COC(=O)/C=C/c1ccccc1[N+](=O)[O-])C1CCS(=O)(=O)C1 (stereo not drawn)
    3.8	0.749	-4.7%	1.3	0.7	3.6	-5.4
10) CCc1c(C)nc(SCC(=O)Nc2nc(-c3ccc(OC)cc3)cs2)[nH]c1=O
    0.0	0.697	.	1.6	1.0	-3.2	4.0
11) Cc1nc2c(ccc3nc(NC(=O)C4CC4)sc32)s1
    -0.7	0.725	-4.5%	-11.4	-1.9	0.7	6.1
12) COCCN1CCN(C(=O)c2ccc3oc(CCc4ccccc4)nc3c2)CC1
    -3.9	0.684	.	-7.7	0.6	0.5	5.3
13) O=C(O)c1ccc(COc2ccc([N+](=O)[O-])cc2)o1
    4.5	0.616	.	1.1	-1.6	1.1	2.8
14) CC1(C)CN=C(NC2CCCCC2)S1
    2.1	0.669	3.2%	9.9	0.4	0.9	-6.4
15) NC(=O)c1ccc(Oc2ccc(-c3nnco3)cc2)c([N+](=O)[O-])c1
    3.8	0.648	.	7.8	-0.1	-0.9	-0.1
16) CCCCNC(=O)C1(O)c2cc(Br)ccc2NC(=O)N1c1cccc(OC)c1 (stereo not drawn)
    1.4	0.676	-6.0%	-2.8	1.0	2.7	0.6
17) O=C(NC1CCCCC1)N1CCN(C2CCCCC2)CC1
    5.6	0.686	1.7%	-4.3	0.9	0.0	2.1
18) COc1cccc(CNC(=O)c2ccc(OCC(=O)N3CCOCC3)c(OC)c2)c1
    -0.7	0.606	0.6%	-12.7	0.1	-2.8	1.4
19) CCOc1ncccc1C(=O)N(C)CC(=O)Nc1ccc(C)cc1
    1.2	0.627	2.0%	3.3	0.1	-0.3	0.1
20) CCOC(=O)CCSc1n[nH]c(=S)s1
    -0.8	0.712	.	-1.0	0.0	0.1	-1.7
21) CS(=O)(=O)N1CCc2cc(S(=O)(=O)Nc3ccc4c(c3)OCCO4)ccc21
    -0.6	0.731	-1.8%&-2.1%	-0.4	0.2	2.2	-2.6
22) COc1cccc(CNc2nc3ccccc3n2CCN2CCCCC2)c1
    3.8	0.656	0.2%	-22.4	0.4	-1.8	-0.9
23) C=CCOC(=O)Nc1c(C(=O)OC)[nH]c2ccc(Cl)cc12
    -9.5	0.716	4.2%	-0.4	-0.7	0.4	0.2
24) CCC(=O)Nc1ccc(S(=O)(=O)N2CCc3ccccc32)cc1
    3.6	0.67	.	16.9	1.2	4.7	-4.2
25) CCCc1cc(=O)oc2cc(C)cc(OCC(=O)Nc3cccnc3)c12
    -65.4	0.705	.	5.9	0.4	0.0	-0.4
26) COc1ccc2oc(C(F)(F)C(F)F)cc(=O)c2c1
    -240.0	0.737	-1.4%	11.1	0.0	0.2	-2.3
27) Cc1ccc(C(=O)NCC(=O)NCCCc2ccccc2)cc1
    -1.1	0.693	.	2.4	0.3	-0.5	2.6
28) Cc1nc(C)c(-c2csc(Nc3ccc(O)cc3C)n2)s1
    .	.	?	-1.2	-1.1	-2.9	0.0
29) Cc1cccc(/C=C(\c2nc3ccccc3[nH]2)S(=O)(=O)c2ccccc2)c1
    7.0	0.662	.	25.4	.	2.0	.
30) Cn1c(OCc2cccnc2)nc2c1c(=O)n(Cc1ccc(Cl)cc1)c(=O)n2C
    4.4	0.701	-2.0%	-7.0	0.6	-1.3	-3.4

# Quoted from the listing:
# A1 inh with cpd 18 reads 0.1
# A1 inh with cpd 9 reads 0.7
# HNF4A DNA FP with cpd 1 reads -5.5

# Among those listed so far, these have fluorine:
# Order of results – UCH37 DUB inh	Ecoli growth	Vif A3G	B2AR ag	A1 inh	HNF4A DNA FP	LANA-H2B inh
5) O=S(=O)(c1ccc2ccccc2c1)N1CCN(S(=O)(=O)c2c(F)cccc2F)CC1
    3.4	0.698	.	-0.7	0.3	-2.2	-1.3
26) COc1ccc2oc(C(F)(F)C(F)F)cc(=O)c2c1
    -240.0	0.737	-1.4%	11.1	0.0	0.2	-2.3

# The list goes on.
# Order of results – UCH37 DUB inh	Ecoli growth	Vif A3G	B2AR ag	A1 inh	HNF4A DNA FP	LANA-H2B inh
31) COc1cccc(CN2CCNC(=O)C2CC(=O)NCCn2ccc3ccccc32)c1OC (stereo not drawn)
    2.5	0.69	4.3%	-3.9	0.8	-5.6	1.6
32) Cc1ccnc(NS(=O)(=O)c2ccc(NC(=O)COc3ccccc3)cc2)n1
    -2.6	0.743	10.3%	3.8	-1.3	-1.9	2.7
33) CC1CCN(C(=O)c2ccc(S(=O)(=O)Cc3ccccc3F)c([N+](=O)[O-])c2)CC1
    1.4	0.61	.	-5.6	-0.5	2.1	-6.0
34) O=C(NCC1CCCO1)C(c1ccc(F)cc1)N(Cc1ccc(F)cc1)C(=O)Cn1nnc(-c2cccs2)n1 (stereo not drawn)
    1.6	0.731	2.6%	-17.4	1.1	3.3	2.1
35) O=C(O)CCC(=O)Nc1ccc(Br)cc1C(=O)c1ccccc1
    -0.9	0.714	-1.3%	9.3	0.3	-2.8	-6.6
36) CC(=O)c1cn(CCCCCCCn2cc(C(C)=O)c(=O)[nH]c2=O)c(=O)[nH]c1=O
    2.2	0.72	13.0%	-0.6	0.2	3.4	4.5
37) O=C(COc1ccccc1Cl)Nc1cccnc1
    4.6	0.612	1.4%	-5.3	-2.3	1.3	3.7
38) O=C(COC(=O)/C=C/c1ccc([N+](=O)[O-])cc1)NCc1ccco1
    1.8	0.717	-6.3%	-1.2	1.1	1.6	-4.9
39) COC(=O)c1ccc(N=NNc2cccc(Br)c2)cc1
    3.6	0.718	16.8%	7.5	-2.0	0.8	6.2
40) CC(C)c1nc(N2CCN(C(=O)c3ccccc3)CC2)c(C#N)c2c1COC(C)(C)C2
    -44.8	0.708	0.8%	1.9	-0.1	0.1	2.5
41) COc1ccc(CCNC(=O)c2cc([N+](=O)[O-])cc([N+](=O)[O-])c2)cc1OC
    6.3	0.69	0.1%	-3.6	0.5	3.3	0.9
42) CCOc1ccc(C(=O)C(C)OC(=O)c2cnc(C)cn2)cc1 (stereo not drawn)
    1.0	0.702	-6.2%	6.2	1.3	2.6	-1.9
43) COCCCNC(=S)N1CCN(c2nc(-c3cccc(OC)c3)cs2)CC1
    0.3	0.648	-0.9%	13.5	1.3	-0.2	-1.3
44) CCOC(=O)C1=C(C)N(C[C@@H]2CC[C@@H](Cc3ccc(-c4ccccc4)cc3)O2)C(=O)NC1c1cccc([N+](=O)[O-])c1 (stereo partly drawn)
    0.4	0.707	-8.5%	2.0	.	1.3	.
45) O=C(CN1C(=O)NC(Cc2ccccc2)C1=O)NC(=O)NC1CCCCC1 (stereo not drawn)
    2.1	0.705	16.4%	-0.5	-0.6	-5.3	-5.9
46) CC(C)n1nc(C(=O)OCC(=O)N(C)C2CCS(=O)(=O)C2)c2ccccc2c1=O (stereo not drawn)
    1.2	0.729	-2.0%	2.1	1.2	0.6	0.5
47) CC(C)(C)OC(=O)NCCCC[C@H](NC(=O)c1[nH]cnc1C(=O)Nc1ccc(CNC(=O)OC(C)(C)C)cc1)C(=O)OC(C)(C)C
    5.4	.	-2.7%	.	2.4	.	-1.4
48) CCOC(=O)CSCc1c(C#N)c2ccccc2n1C
    -0.6	0.727	-0.4%	4.0	0.9	-3.5	-2.4
49) O=C1CSC(c2ccccc2F)N1 (stereo not drawn)
    -0.8	0.675	25.5%	2.1	0.1	-1.2	8.8
50) COc1cccc(-n2c(SCC(=O)OC(C)C)nnc2-c2cccnc2)c1
    0.5	0.708	2.2%&5.4%	1.7	0.3	2.7	-2.0
51) CCOc1ccc(CCNC(=O)COC(=O)c2ccc(C)s2)cc1OCC
    0.2	0.677	.	-10.1	0.7	0.9	2.8
52) O=C(N/N=C/c1ccc(-c2ccc(Cl)c(C(=O)O)c2)o1)c1cc2c(ccc3ccccc32)o1
    .	.	?	1.6	1.1	-22.6	5.0
53) COc1ccccc1CNC(=O)c1ccc2c(=O)n(CCCN3CCCC3=O)c(=S)[nH]c2c1
    5.2	0.712	2.1%	-1.9	0.4	-3.5	3.2
54) CCO[C@H]1OC(C(=O)N2CCN(Cc3ccc4c(c3)OCO4)CC2)=C[C@@H](c2ccc(Br)cc2)[C@@H]1CCCO
    0.3	.	.	0.8	-0.1	0.5	-4.5
55) CCn1cc(S(=O)(=O)Nc2cc(F)ccc2C)cn1
    4.5	0.726	?	-3.6	-0.1	-3.8	-0.3
56) COc1ccc(CCN2C(=O)CC(Cc3ccc(C)cc3)C2=O)cc1OC (stereo not drawn)
    -1.7	0.711	2.1%	-2.6	-0.2	-2.6	1.5
57) Cc1nn(C)c(C)c1NS(=O)(=O)c1ccccc1
    -0.2	0.664	-4.6%	2.3	0.6	2.2	1.3
58) O=C(COC(=O)C1=COCCO1)Nc1ncc(Cl)cc1Cl
    0.7	0.683	25.4%	24.9	-0.9	0.6	1.8
59) Cc1cccn2c(=O)c3cc(C(=O)N4CCCCC4C)sc3nc12 (stereo not drawn)
    -165.1	0.644	-5.3%	-11.5	-0.4	-2.4	1.7
60) CCS(=O)(=O)c1ccc(O)c(NC(=O)CCCC(=O)O)c1
    3.9	0.701	?	-3.7	1.9	0.4	-0.2
61) Cc1ccc(C)c2c1[nH]c1ccc([N+](=O)[O-])cc12
    2.9	0.691	0.2%	-2.8	-1.1	0.7	-5.1
62) O=C1CCCC2=C1C(c1ccncc1)n1c(nc3ccccc31)N2 (stereo not drawn)
    i	0.673	-5.1%	-7.9	0.1	-0.6	2.2
63) C=CCNC(=O)CN1C(=O)NC(C)(c2ccc(OC)cc2)C1=O (stereo not drawn)
    3.8	0.688	.	-0.1	0.5	-0.4	3.8
64) COc1cc(C(=O)Nc2nc3ccc4nc(C)sc4c3s2)cc(OC)c1OC
    -8.4	0.663	-6.0%	5.5	0.3	12.6	0.0
65) COc1cc(CC(=O)NCc2ccc3c(c2)OCO3)cc(OC)c1OC
    3.1	0.756	5.2%	-10.4	-0.1	1.6	5.5
66) CCN(CC)S(=O)(=O)c1cc(NC(=O)CCc2c(C)noc2C)ccc1C
    4.8	0.697	0.1%	3.3	1.0	-1.8	9.6
67) COc1ccc(C2CC(c3ccc(Cl)cc3)n3nc(N)nc3N2)cc1 (stereo not drawn)
    -4.1	0.735	1.7%	6.0	-0.2	2.8	3.3
68) Cc1ccc(CCNC(=O)C2CCN(S(=O)(=O)c3ccc4c(c3)NC(=O)C(C)S4)CC2)cc1 (stereo not drawn)
    0.4	0.684	.	1.3	0.1	-0.5	4.3
